HIV Env fusion – HIV envelope-mediated fusion inhibition | HeLa-JRFL Env/CEM21 cell fusion, luciferase | inhibition, % at 12.3 µM | 360,000 tested, 1.1% active | AID 651610;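 active = mean replicate inhibition score of at least 50 and every replicate individually at or above 50; inconclusive = only one of the two criteria met; inactive = mean below 50 and not all replicates reaching 50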;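 note: 0% = plate neutral controls and 100% = maraviroc near 300 nM; one replicate is shown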
An asterisk follows results filed as active; u = inconclusive; [ ] = another dose, or the depositor's remark.

| smiles | HIV Env fusion |
| --- | --- |
| C[C@H](CO)N1C[C@H](C)[C@@H](CN(C)C(=O)c2ccncc2)Oc2ncc(-c3ccc(F)cc3)cc2C1=O | 7[16.7 µM] |
| C[C@@H]1CCCCO[C@H](CN(C)S(C)(=O)=O)[C@@H](C)CN([C@H](C)CO)C(=O)c2cc(NC(=O)c3ccncc3)ccc2O1 | 2[16.7 µM] |
| CO[C@@H]1CN(C)C(=O)c2cc(NC(=O)NC(C)C)ccc2OC[C@H](C)N(CCC(F)(F)F)C[C@@H]1C | -5[16.7 µM] |
| O=C(C[C@@H]1CC[C@H]2[C@@H](COC[C@@H](O)CN2C(=O)Nc2ccc(F)cc2)O1)NCCCN1CCOCC1 | -37[16.7 µM] |
| CO[C@@H]1CC[C@@H]2CCOc3c(C#N)cccc3C(=O)N(C)C[C@@H](C)C(=O)N(C)C[C@@H]1O2 | -2[16.7 µM] |
| COCC(=O)N(C)C[C@@H]1Oc2cc(-c3ccccc3F)ccc2S(=O)(=O)N([C@H](C)CO)C[C@H]1C | 4[16.7 µM] |
| CO[C@H]1CN(C)C(=O)c2ccc(NS(=O)(=O)c3cn(C)cn3)cc2OC[C@H](C)NC[C@H]1C | -30[16.7 µM] |
| COc1ccc(NC(=O)Nc2ccc3c(c2)[C@H]2C[C@@H](CC(=O)NC4CCCCC4)O[C@@H](CO)[C@H]2O3)cc1 | 17[16.7 µM] |
| C[C@@H]1CCCCO[C@@H](CN(C)Cc2ccncc2)[C@@H](C)CN([C@H](C)CO)C(=O)c2cc(NC(=O)c3ccncc3)ccc2O1 | -4[16.7 µM] |
| CC(C)C[C@H]1COc2cc(N3CCCC3)ccc2S(=O)(=O)N1 | 15 |
| CS(=O)(=O)Nc1ccc2c(c1)[C@@H]1C[C@H](CC(=O)NCC3CC3)O[C@H](CO)[C@@H]1O2 | 1[16.7 µM] |
| CC(=O)C1=C(C)N(Cc2ccccc2)C(=S)NC1c1cccc(Br)c1 (configuration not stated) | 0 |
| COc1ccc(CN(C)C[C@@H]2Oc3ccc(NS(C)(=O)=O)cc3CC(=O)N([C@@H](C)CO)C[C@@H]2C)cc1 | -9[16.7 µM] |
| C[C@@H]1CN([C@@H](C)CO)C(=O)c2cc(C#CC3CC3)cnc2O[C@H]1CN(C)C(=O)C1CCCCC1 | 8[16.7 µM] |
| COc1ccc(NC(=O)N(C)C[C@@H]2OCc3cn(nn3)CCCC(=O)N([C@H](C)CO)C[C@@H]2C)c(OC)c1 | -16[16.7 µM] |
| COc1ccc(CN(C)C[C@@H]2OCCCC[C@H](C)Oc3ccc(NC(=O)C4CCCCC4)cc3C(=O)N([C@H](C)CO)C[C@H]2C)cc1 | 10[16.7 µM] |
| CN1C(=O)c2cc(NC(=O)Cc3cccs3)ccc2OC[C@@H]2O[C@@H](CC(=O)N[C@H]3CCN(Cc4ccccc4)C3)CC[C@H]21 | -41[16.7 µM] |
| COc1cccc(NC(=O)N[C@H]2CC[C@@H](CC(=O)N3CCCCC3)O[C@@H]2CO)c1 | 26[16.7 µM] |
| Cc1noc(C)c1NC(=O)Nc1ccc2c(c1)C(=O)N(C)[C@H]1CC[C@H](CC(=O)Nc3ccc4c(c3)CCCC4)O[C@@H]1CO2 | 39[16.7 µM] |
| O=C(N[C@@H]1C=C[C@@H](CC(=O)N2CCc3ccccc3C2)O[C@@H]1CO)C1CC1 | 30[16.7 µM] |
| O=C(C[C@@H]1CC[C@H]2[C@@H](COC[C@@H](O)CN2C(=O)c2ccccc2)O1)N1CCOCC1 | -25[16.7 µM] |
| C[C@@H]1CN([C@@H](C)CO)C(=O)c2cc(NC(=O)Nc3ccc4c(c3)OCO4)ccc2O[C@@H]1CN(C)Cc1ccncc1 | 8[16.7 µM] |
| COC(=O)C1=C(C)N(C)C(=NCc2ccc3c(c2)OCO3)NC1c1cccc(Cl)c1 (configuration not stated) | -1 |
| CC(C)NC(=O)Nc1ccc2c(c1)C(=O)N([C@@H](C)CO)C[C@@H](C)[C@H](CN(C)S(C)(=O)=O)O2 | 5[16.7 µM] |
| CC[C@@H](C)[C@@H](CO[C@@H](Cc1ccccc1)C(=O)N[C@@H](CCS(C)(=O)=O)C(=O)OC(C)C)NCC(N)CS (some centres not stated) | -72[16.7 µM] |
| C[C@H](O)C#Cc1cnc2c(c1)C(=O)N([C@H](C)CO)C[C@H](C)[C@H](CN(C)CC1CCOCC1)O2 | 5[16.7 µM] |
| C[C@@H]1CN([C@@H](C)CO)C(=O)c2ccccc2-c2ccccc2CO[C@@H]1CN(C)S(=O)(=O)Cc1ccccc1 | 7[16.7 µM] |
| CO[C@H]1CN(C)C(=O)c2ccc(NC(C)=O)cc2OC[C@@H](C)N(Cc2ccccc2F)C[C@@H]1C | 5[16.7 µM] |
| Cc1cc2c(c(=O)o1)[C@@]1(C(=O)N(C)c3ccccc31)C1=C(CC3(CCCCC3)OC1=O)O2 | -1 |
| O=C(C[C@H]1CC[C@@H]2[C@H](COC[C@H](O)CN2Cc2nccs2)O1)N1CCC(Cc2ccccc2)CC1 | 12[16.7 µM] |
| COc1ccc(CNC(=O)C[C@H]2CC[C@H]3[C@@H](COc4ccc(NC(=O)C(C)C)cc4C(=O)N3C)O2)cc1 | 12[16.7 µM] |
| O=C1CC[C@@H]2c3[nH]c4ccccc4c3CCN12 | -1[16.7 µM] |
| [N-]=[N+]=NCCNC(=O)Nc1ccccc1 | -4[16.7 µM] |
| COc1ccc(C2CC(=O)C(c3ccccc3C)=CN2Cc2ccccc2)cc1 (configuration not stated) | -17 |
| C[C@H](CO)N1C[C@H](C)[C@H](CN(C)Cc2ccc(-c3ccccc3)cc2)Oc2ccc(NC(=O)Cc3cn(C)c4ccccc34)cc2CC1=O | -24[16.7 µM] |
| COCC(=O)Nc1ccc2c(c1)OC[C@H](C)N(Cc1cccc(F)c1)C[C@H](C)[C@H](OC)CN(C)C2=O | 6[16.7 µM] |
| CCS(=O)(=O)Nc1ccc2c(c1)C(=O)N(C)[C@H]1CC[C@H](CC(=O)N3CCN(C)CC3)O[C@H]1CO2 | -5[16.7 µM] |
| COc1cccc(S(=O)(=O)Nc2ccc3c(c2)[C@H]2C[C@@H](CC(=O)NCc4ccccc4F)O[C@@H](CO)[C@H]2O3)c1 | -1[16.7 µM] |
| C[C@H](CO)N1C[C@H](C)[C@@H](CN(C)CC2CCCCC2)OCc2cn(nn2)CCCC1=O | -2[16.7 µM] |
| O=C(NCc1cc(F)cc(F)c1)[C@@H]1[C@@H](CO)[C@@H]2Cn3c(cccc3=O)[C@H]1N2 | -4[16.7 µM] |
| COCC(=O)Nc1ccc2c(c1)OC[C@H](C)N(C(=O)c1ccccn1)C[C@@H](C)[C@@H](OC)CN(C)C2=O | 5[16.7 µM] |
| COC(=O)[C@]12C[C@H](CC(=O)N3CCC(c4ccccc4)CC3)C(=O)N(CCC3=CCCCC3)C1=C[C@H](COCc1ccccc1)O[C@@H]2C | 11 |
| C[C@@H]1CN([C@@H](C)CO)C(=O)CCCn2cc(nn2)CO[C@@H]1CN(C)Cc1ccccc1C(F)(F)F | 15[16.7 µM] |
| CCCNC(=O)N1C[C@H](O)COC[C@H]2O[C@H](CC(=O)N3CCN(C)CC3)CC[C@@H]21 | -37[16.7 µM] |
| Cc1cc(N2CCN(C(=O)OC(C)(C)C)C[C@H]2C)ccc1Br | -5 |
| C[C@H]1CN([C@@H](C)CO)C(=O)Cc2cc(NS(=O)(=O)c3ccc(F)cc3)ccc2O[C@H]1CN(C)Cc1ccc(-c2ccccc2)cc1 | -11[16.7 µM] |
| COCc1[nH]nc2c1C(c1ccccc1)N(Cc1ccccc1)C2=O (configuration not stated) | 11 |
| CC(C)C[C@H]1COCc2cn(nn2)CC[C@@H](Cc2ccccc2)C(=O)N1 | -3[16.7 µM] |
| COc1ccc(NC(=O)N(C)C[C@@H]2Oc3ccc(NS(=O)(=O)c4ccc(C)cc4)cc3CC(=O)N([C@@H](C)CO)C[C@H]2C)cc1 | 5[16.7 µM] |
| O=C(Nc1ccc2c(c1)[C@H]1C[C@@H](CC(=O)N3CCCCC3)O[C@@H](CO)[C@H]1O2)C1CCOCC1 | -11[16.7 µM] |
| CCCCOCCCNC(=O)C[C@H]1C[C@@]2(C(=O)OC)C(=C[C@H](COCc3ccccc3)O[C@@H]2C)N(Cc2ccc3c(c2)OCO3)C1=O | -12 |
| O=S1(=O)N[C@@H](Cc2ccccc2)COc2cc(N3CCOCC3)ccc21 | -18 |
| C[C@H](CO)N1C[C@H](C)[C@H](CN(C)C)OCc2cnnn2CCCC1=O | 0[16.7 µM] |
| CO[C@H]1CN(C)C(=O)c2ccc(NC(=O)C3CCOCC3)cc2OC[C@H](C)N(C(=O)c2ccccc2)C[C@H]1C | 4[16.7 µM] |
| Cc1ccc(S(=O)(=O)N[C@H]2CC[C@H](CC(=O)N3CCc4ccccc4C3)O[C@H]2CO)cc1 | -8[16.7 µM] |
| CCCCOCC1CN(Cc2ccccc2OC)S(=O)(=O)c2cc(Cl)ccc2O1 (configuration not stated) | u |
| O=C(C[C@@H]1C[C@H]2c3cc(NC(=O)c4cccnc4)ccc3O[C@H]2[C@@H](CO)O1)NCCc1ccccc1 | 10[16.7 µM] |
| O=C(C[C@@H]1CC[C@@H]2[C@H](COC[C@H](O)CN2S(=O)(=O)c2ccccc2F)O1)NCc1ccccc1F | 10[16.7 µM] |
| C[C@H]1CN([C@@H](C)CO)S(=O)(=O)c2ccc(C3=CCCCC3)cc2O[C@@H]1CN(C)C | 11[16.7 µM] |
| COC(=O)c1ccc2nc(-c3ccco3)c(Cc3ccsc3)n2c1 | 13 |

At a glance, some entries already given.
| smiles | HIV Env fusion |
| --- | --- |
| C[C@H](CO)N1C[C@H](C)[C@@H](CN(C)C(=O)c2ccncc2)Oc2ncc(-c3ccc(F)cc3)cc2C1=O | 7[16.7 µM] |
| C[C@@H]1CCCCO[C@H](CN(C)S(C)(=O)=O)[C@@H](C)CN([C@H](C)CO)C(=O)c2cc(NC(=O)c3ccncc3)ccc2O1 | 2[16.7 µM] |
| CO[C@@H]1CN(C)C(=O)c2cc(NC(=O)NC(C)C)ccc2OC[C@H](C)N(CCC(F)(F)F)C[C@@H]1C | -5[16.7 µM] |

Remaining list, next part.
| smiles | HIV Env fusion |
| --- | --- |
| CS(=O)(=O)c1ccc(S(=O)(=O)NCC2CCN(C(=O)C(=O)c3cc4ccccc4o3)CC2)cc1 | u |
| CO[C@H](C(=O)N(C)C[C@@H]1OCc2ccccc2-c2c(n(C)c3ccccc23)C(=O)N([C@@H](C)CO)C[C@H]1C)c1ccccc1 | -4[16.7 µM] |
| C[C@H](CO)N1C[C@H](C)[C@H](CN(C)Cc2ccc(C(=O)O)cc2)Oc2c(NC(=O)NC3CCCCC3)cccc2C1=O | 6[16.7 µM] |
| O=C(C[C@@H]1CC[C@@H]2[C@H](COC[C@@H](O)CN2S(=O)(=O)c2ccccc2)O1)NCc1ccc(-c2ccccc2)cc1 | -18[16.7 µM] |
| C/C=C/c1cnc2c(c1)C(=O)N([C@@H](C)CO)C[C@@H](C)[C@H](CN(C)C(=O)C1CCC1)O2 | -23[16.7 µM] |
| O=C1NC(Cc2ccccc2)c2nc3cc(Cl)ccc3c(=O)n2-c2ccccc21 (configuration not stated) | 16 |
| CC(C)C[C@H]1CNC(=O)C(=O)N1C[C@@H]1CCCN1C[C@H](Cc1ccccc1)N1C[C@H](CC(C)C)N(CC2CCCCC2)C(=O)C1=O | -7 |
| CNC[C@H]1OCCCC[C@@H](C)Oc2ccc(NS(=O)(=O)c3cccs3)cc2C(=O)N([C@H](C)CO)C[C@@H]1C | 6[16.7 µM] |
| COc1ccc(NC(=O)N(C)C[C@H]2Oc3ccc(NS(=O)(=O)c4ccccc4)cc3CC(=O)N([C@@H](C)CO)C[C@H]2C)cc1 | -21[16.7 µM] |
| CNC[C@@H]1OCCCC[C@H](C)Oc2ccc(NC(=O)NC(C)C)cc2C(=O)N([C@H](C)CO)C[C@@H]1C | -23[16.7 µM] |
| C[C@H](CO)N1C[C@H](C)[C@H](CN(C)C(=O)C2CCCCC2)Oc2cc(C#CCN(C)C)ccc2S1(=O)=O | -20[16.7 µM] |
| CO[C@@H]1CN(C)C(=O)c2cc(NC(=O)c3ccc(Oc4ccccc4)cc3)ccc2OC[C@@H](C)N(C(C)=O)C[C@H]1C | 21[16.7 µM] |
| C[C@@H]1CN([C@@H](C)CO)C(=O)c2ccccc2-c2ccccc2CO[C@@H]1CN(C)C(=O)[C@@H](Cc1ccccc1)N(C)C | 22[16.7 µM] |
| C[C@@H]1OC(C2CCCCC2)N(C)[C@H]2C[C@H]3c4[nH]c5c(-c6ccccc6)cccc5c4CCN3C(=O)[C@@H]12 (some centres not stated) | 12 |
| CO[C@H]1CN(C)C(=O)c2cc(NS(=O)(=O)CC(F)(F)F)ccc2OC[C@@H](C)N(Cc2nccs2)C[C@H]1C | -4[16.7 µM] |
| COc1ccc(S(=O)(=O)Nc2cccc3c2O[C@@H](CN(C)Cc2ccc(Cl)c(Cl)c2)[C@@H](C)CN([C@H](C)CO)C3=O)cc1 | 28[16.7 µM] |
| CO[C@H]1CN(C)C(=O)c2cc(NC(=O)Nc3ccccc3)ccc2OC[C@H](C)N(C(=O)CC2CC2)C[C@H]1C | -10[16.7 µM] |
| CO[C@H]1CC[C@@H]2CCOc3c(C#N)cccc3C(=O)N(C)C[C@@H](C)C(=O)N(C)C[C@H]1O2 | -3[16.7 µM] |
| COCC(=O)N(C)C[C@@H]1Oc2ncc(C3=CCCC3)cc2C(=O)N([C@H](C)CO)C[C@@H]1C | -2[16.7 µM] |
| CN1C(=O)c2cc(NC(=O)c3ccc(C(F)(F)F)cc3)ccc2OC[C@@H]2O[C@@H](CC(=O)NC3Cc4ccccc4C3)CC[C@@H]21 | 37[16.7 µM] |

A second format for 4 compounds above:
C[C@@H]1CN([C@@H](C)CO)C(=O)c2cc(C#CC3CC3)cnc2O[C@H]1CN(C)C(=O)C1CCCCC1
  HIV Env fusion: 8[16.7 µM]
COc1ccc(NC(=O)N(C)C[C@@H]2OCc3cn(nn3)CCCC(=O)N([C@H](C)CO)C[C@@H]2C)c(OC)c1
  HIV Env fusion: -16[16.7 µM]
COc1ccc(CN(C)C[C@@H]2OCCCC[C@H](C)Oc3ccc(NC(=O)C4CCCCC4)cc3C(=O)N([C@H](C)CO)C[C@H]2C)cc1
  HIV Env fusion: 10[16.7 µM]
CN1C(=O)c2cc(NC(=O)Cc3cccs3)ccc2OC[C@@H]2O[C@@H](CC(=O)N[C@H]3CCN(Cc4ccccc4)C3)CC[C@H]21
  HIV Env fusion: -41[16.7 µM]

Some of the compounds tested, so the mix of outcomes need not match the whole.
